# From PubChem BioAssay
# gsp antag = antagonizes gsp, the McCune-Albright syndrome mutation; gsp-mutant cells, cAMP HTRF, 30 min; control for the full effect not named in the record; 0.4% of 340,000 active; Potency, µM (doses to about 76.9 µM), for inactives: at the top dose activity change, negative = inhibition, usual class: inhibitors; AID 624288; active = falling curve of any shape with a large fitted effect; inconclusive = falling curve, mostly with a smaller effect; inactive = flat or rising curve; cell line not stated here;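 also: intracellular cAMP measured with PDE inhibitor Ro 20-1724 present during compound exposure; potency is read from the fitted curve at half-maximal effect; % is scaled to controls: 0 for no effect and ±100 for the full control effect; nearly all actives have a fitted effect of over 65% in size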
#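 HTRF cAMP measurement after 30 min RT detection following 30 min, 37C compound treatment alongside […] (added as 300 uM solution) in G418-selected cells seeded at 2000/well and grown 16–24 h.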
# ClpP mod = qHTS Assay for Activators of ClpP. ATP-dependent Clp protease proteolytic subunit (Bacillus subtilis (strain 168)), P80244. purified B. subtilis ClpP, FRET peptide cleavage, 20 min. Potency, µM (titrated, usually from 57.5 µM), for inactives: at the highest dose activity change, negative = active. 1.9% of 340,000 active. AID 651965, 2013; active = well fitted falling curve with a large enough effect; inconclusive = small, poorly fitted or top-dose-only effect; inactive = no such curve, though single readings can be large or run the other way; also: potency is read from the fitted curve at half-maximal effect; the source files actives as falling curves though it sought activators and does not explain the sign; nearly all actives have a fitted effect of over 65% in size; many hits overshoot -100%
# Target sequence (P80244 whole entry, looked up): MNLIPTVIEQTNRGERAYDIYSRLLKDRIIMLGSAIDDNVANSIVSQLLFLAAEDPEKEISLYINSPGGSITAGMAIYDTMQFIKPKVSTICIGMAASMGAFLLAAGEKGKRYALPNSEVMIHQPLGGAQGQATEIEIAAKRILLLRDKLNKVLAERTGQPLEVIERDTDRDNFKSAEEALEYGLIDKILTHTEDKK
#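 ClpP 10 microg/mL final, pH 8 Tris/KCl buffer with BSA, glycerol, Tween-20; compound pinned in; FRET-FV substrate; RT 20 min; Ex320/Em430; ΔFRET vs ADEP 5.8 microM, DMSO, no enzyme.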
# D2 agonist = agonists of human D2 dopamine receptor (beta-arrestin). DiscoveRx PathHunter D2 beta-arrestin, luminescence, 90 min; 100% = 57 uM dopamine signal. 0.084% of 360,000 active. activation, % (test concentration not listed). P14416; in the data active = activation above about 40%; inconclusive = about 15% to 40%; inactive = below about 15%; also: compound concentration not given in the record; the text of the record calls up to 30% inactive
# Target sequence (P14416 whole entry, looked up): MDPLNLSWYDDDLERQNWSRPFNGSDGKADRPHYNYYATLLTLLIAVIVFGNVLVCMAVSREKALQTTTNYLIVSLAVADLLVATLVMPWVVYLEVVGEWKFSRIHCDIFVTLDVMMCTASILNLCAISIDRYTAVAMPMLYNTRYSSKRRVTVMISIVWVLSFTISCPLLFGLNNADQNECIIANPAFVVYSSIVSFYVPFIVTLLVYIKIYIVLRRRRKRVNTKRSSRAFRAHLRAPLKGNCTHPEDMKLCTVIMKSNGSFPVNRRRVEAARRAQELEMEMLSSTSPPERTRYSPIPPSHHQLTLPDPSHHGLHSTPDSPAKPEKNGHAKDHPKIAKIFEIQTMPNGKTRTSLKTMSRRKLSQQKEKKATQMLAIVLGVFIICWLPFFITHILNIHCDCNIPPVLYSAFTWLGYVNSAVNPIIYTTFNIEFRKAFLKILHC
#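 DiscoveRx PathHunter D2 beta-arrestin cells (2,100/well) attached overnight, then compound-stimulated 90 min at 37 C in HBSS/10 mM HEPES/0.1% Tween-20 buffer; beta-galactosidase complementation read by luminescence after 1 h at ambient temperature. Dopamine 57 uM final (EC100) as control.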
# Sfp inh = blocks B. subtilis Sfp PPTase activity; Q9F4F7; Biochemical Sfp PPTase activity, qHTS; Potency, µM, for inactives: max response, negative = inhibition, hits mostly inhibitors; 3.5% of 310,000 active; active = well fitted inhibition curve with a large enough effect; inconclusive = small, poorly fitted or top-dose-only effect, or another doubt; inactive = no such curve, though single readings can be large or run the other way;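 also: the enzyme is Sfp with the accession as filed and its product quenches rhodamine fluorescence; potency is read from the fitted curve at half-maximal effect; 0% = enzyme reaction without inhibitor and -100% = no enzyme wells; top concentration of the series not given in the record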
#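 Step 1, compound plus 15 nM Sfp-PPTase, 15 min, room temperature. Step 2, add rhodamine-CoA (5 uM) and BHQ-2-YbbR (12.5 uM). Step 3, read 525/598 nm fluorescence at 0 and 30 min.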
# PINK1 modulator = changes PINK1 expression; PINK1 immunofluorescence, high-content cytometry, 24 h; Potency, µM (doses to about 76.6 µM), without a hit: at the top dose activation (PINK1 increase), actives largely listed as activators; 0.2% of 410,000 active; AID 624263; active = well fitted activation curve with a large enough effect; inconclusive = small, poorly fitted or top-dose-only effect; inactive = flat fitted curve, though single readings scatter; cell line not stated here;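 also: potency is read from the fitted curve at half-maximal effect; % of control where 0% means no effect; nearly all actives have a fitted effect of over 65% in size; a mitochondrial uncoupler was the plate control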
#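 Readout is PINK1 immunofluorescence, quantified alongside mitochondrial, cell and nuclear markers by laser-scanning microplate cytometry. Cells from a stable line were exposed to compound titrations (5 concentrations) for 24 hours, with CCCP controls.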
# Menin-MLL FL inh = inhibitors of human menin-MLL interaction, wild-type MLL peptide; Fluorescence polarization, fluorescein-MLL peptide displacement from menin; FP activity change, % at 61.4 µM; 290,000 tested, under 10 active; inconclusive = falling polarisation curve, or a change in total fluorescence; inactive = total fluorescence flat and polarisation flat or rising; no compound was filed as active; the % refers to the polarisation; negative = inhibition;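 also: % of control where 0% means no effect; inhibitors lower the polarisation; unlabelled MLL peptide was the positive control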
# gsp ag = agonists of gsp mutant (McCune-Albright syndrome). AID 624287. 0.13% of 340,000 active. Potency, µM (titrated, usually from 76.9 µM), for inactives: at the highest dose activation (cAMP increase), hits mostly activators. gsp mutant cells, cAMP HTRF, 30 min; control for the full effect not named in the record; active = well fitted activation curve with a large enough effect; inconclusive = small, poorly fitted or top-dose-only effect, or another doubt; inactive = no such curve, though single readings can be large or run the other way; cell line not stated here;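 also: phosphodiesterase inhibitor Ro 20-1724 added with compounds to block cAMP breakdown; potency is read from the fitted curve at half-maximal effect; nearly all actives have a fitted effect of over 60% in size; about a fifth of the inactives were tested at one dose only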
#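 Cells stably selected in G418 were plated at 2000/well, grown 16-24 hr, then given compounds in DMSO with the PDE inhibitor […] (300 uM solution added) for 30 min at 37C; cAMP was read by HTRF.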
# Active calls of the source: *; ? = inconclusive; . = not tested or not shown; & = joins results of further samples; [ ] = another dose, or the depositor's remark. The order is random. Share with any hit: about 5.1%.
SMILES,gsp antag,ClpP mod,D2 agonist,Sfp inh,PINK1 modulator,Menin-MLL FL inh,gsp ag
CNC(=O)c1cc(S(=O)(=O)NCc2ccncc2)ccc1OC,-4%,-0.2%,-4.1,5%,3.3%,-3.1,-16%
CC(=O)Nc1ccc(NC(=O)CSc2nnc(NC(=O)C3CC3)s2)cc1,5%,-1.9%,-5.2,6%,12%,.,30%
Cc1ccc(N(C)/N=C/c2ccc(Cl)cc2Cl)nn1,13%,-4.4%,-1.0,6%,0.4%,-17,22%
COc1ccc2c(=O)c3c(=O)n(CCc4ccccc4)c(C)nc3oc2c1,6%,.,1.0,.,3.5%,.,-2%[15.4 µM]
Cc1cc(OCC(=O)Nc2ccccc2F)nc(C(C)C)n1,3%,-0.4%,-0.2,13%,3.7%[38.3 µM],2.0,29%
CCCOc1nc2ccccc2cc1/C=C/C(=O)O,-6%,.,0.5,11%,4.8%,-3.2,-1%
CC(=O)c1c(C)[nH]c(C(=O)OCC(=O)Nc2cc(S(=O)(=O)N3CCCC3)ccc2Cl)c1C,-10%,1.6%,4.3,9%,?,4.6,9%
O=C(CN1C(=O)c2ccc([N+](=O)[O-])cc2C1=O)Nc1nnc(C2CC2)s1,0%,-3.6%,-0.2,.,-5.1%,.,-15%
CCOC(=O)C(=NCCOC)NNc1cc(Cl)ccc1Cl,-15%,2.1%,-1.1,-28%,4.2%,1.6,-31%[inhibitor]
c1ccc2c(c1)OCC(CNc1ncnc3nc[nH]c13)O2 (stereo not drawn),-6%,2.7%,-1.8,10%,1.4%,3.8,12%
CCN(CC)S(=O)(=O)c1ccc(C(=O)NCC(=O)N/N=C/c2ccccc2OC)cc1,-14%,-7.5%,-2.5,-3%,1.6%,.,2%
CC(=Nc1ccc(O)cc1)c1sc2ccccc2c1O,-25%,-3.5%,-3.8,-16%,0.2%,?,4%
Cn1c(SCC(=O)NCc2ccc3c(c2)OCO3)nnc1-c1cccs1,5%,-3.0%,-0.3,9%,-2.1%,0.6,-34%[inhibitor]
COc1ccc(-c2nnc(C)c3nocc23)cc1,-12%,0.1%,0.4,9%,-0.8%,?,13%
Cc1ccc(S(=O)(=O)N2CCC(C(=O)NCc3ccccc3Cl)CC2)cc1,-5%,0.4%&0.9%,-2.4,7%,1.7%,0.2,19%
COC(=O)c1sc2nc(C)nc(SCC(=O)N3CCC(C(=O)O)CC3)c2c1C,0%,-1.2%,2.2,23%,-1.0%,-4.0,16µM*
O=C(N[C@H]1c2ccccc2C[C@H]1O)[C@H]1O[C@@H](n2ccc(=O)[nH]c2=O)[C@H](O)[C@@H]1O,.,-2.4%,0.4,.,-0.9%,.,.
CCOC(=O)C1CCN(C(=O)COC(=O)c2oc3ccccc3c2C)CC1,-16%,-25%,1.6,.,1.0%,.,-69%[inhibitor]
CC(C)(C)NC(=O)Cn1c(SCC(=O)NC2CCCC2)nc2ccccc21,4%,.,-3.1,11%,1.9%,-4.5,0%[15.4 µM]
COc1cccc2cc(C(=O)NCc3ccc(F)cc3)c(=N)oc12,8%,-2.9%,-7.3,4%,4.2%,22,?
CC1=C(C(=O)OCc2ccccc2)N2C(=O)[C@@H](NC(=O)COc3ccccc3)[C@H]2SC1,-15%,-2.8%&-9.7%,0.1,?,1.4%,0.1,24%
O=C(COC(=O)CC1CC2CCC1C2)NCc1ccc(F)cc1 (stereo not drawn),8%,.,1.8,.,-0.9%,.,20%
COc1cc(C[C@H](C)[C@H](C)Cc2ccc3c(c2)OCO3)ccc1O,-3%,-0.1%,3.1,12%,-0.8%,5.4,.
Cc1ccnc(NC(=O)CCCOc2ccccc2)c1,9%,.,8.7,5%,2.7%,3.1,14%
CCOC(=O)N1CCC(N2CCN(Cc3ccc(C)o3)C(CCO)C2)CC1 (stereo not drawn),2%,.,-2.5,22%,-2.0%,-2.8,3%[15.4 µM]
CCCCCCN1C[C@@H](n2cc(COC(=O)c3ccccc3)nn2)[C@H](O)C[C@@H]1c1ccc(OC)cc1,.,-6.8%,-9.5,.,14%,.,-13%
CCOc1ccc(NC(=O)CSc2nc3cccnc3n2CCOC)cc1,-6%,-0.2%,0.2,-8%,-1.6%,-3.2,-17%
CN1CC(=O)NC1=NC(=O)C12CC3CC(CC(C3)C1)C2,11%,-1.8%,-6.3,-2%,1.6%,2.6,-14%
CCOC(=O)Cc1csc(NC(=O)NC2(C(F)(F)F)Oc3ccccc3O2)n1,-2%,0.1%,0.8,45µM*,3.3%,3.7,-3%
O=C(COC(=O)COc1cccc(F)c1)NCC1CCCCC1,7%,-2.5%,-1.8,.,-0.7%,.,10%
CC1(C)N([O-])C2=C(c3ccccc3C2=O)[N+](=O)C1(C)C,-14%,5.5%,?,5%,-0.9%,-0.8,2%
Cc1ccc(NC(=O)C/C(N)=N/OC(=O)Nc2cccc(Cl)c2)cc1,11%,0.2%,12,.,-0.6%,.,-36%[inhibitor]
CN(Cc1cnccn1)C(=O)CC1C(=O)NCCN1CC(c1ccccc1)c1ccccc1 (stereo not drawn),4%,.,0.0,11%,3.1%,-14,30%
Cc1ccc(C(=O)OCCc2sc[n+](Cc3ccccc3)c2C)cc1,-8%,-1.1%,-2.3,4%,0.6%,1.3,5%[15.4 µM]
Cc1onc(-c2ccccc2Cl)c1C(=O)OCC(=O)c1ccccc1,-22%,-4.7%,-2.7,11%,.,3.0,-40%[inhibitor]
C#CCNC(=O)C1=C[C@H](C2CCCCC2)C[C@H](OCCCCO)O1,5%,-3.1%,-3.3,-2%,-1.0%,3.7,-13%
COC(=O)c1ccc(Cl)c(NC(=O)CN2CCOCC2)c1,-1%,1.8%,-1.4,6%,0.5%,1.9,-44%[inhibitor]
O=C(NC1(C(F)(F)F)N=C2SCCN2C1=O)c1cccnc1 (stereo not drawn),-5%,0.7%,-3.8,-5%,1.5%,4.6,-11%
O=C(CSc1nnc(CNC(=O)c2cccs2)o1)c1ccc(Cl)cc1,?,-0.1%,-0.8,3%,-0.6%,4.9,10%
CCOc1cc(/C=N\NC(=O)c2ccc(NC(=O)CC)cc2)ccc1OC(=O)c1ccccc1,6%,-1.1%,-1.2,12%,-4.0%,-2.3,17%
Cc1cc2nc(NC(=O)C3(C)CCCN(C(C)C)C3)[nH]c2cc1C (stereo not drawn),.,-0.9%,-5.4,.,-0.8%,.,.
COc1ccc(C2Nc3ccccc3NC3=C2C(=O)CC(C)(C)C3)cc1O (stereo not drawn),6%,-0.9%,11,16%,-1.3%,-9.1,12%[15.4 µM]
C/C=C(\C)C(=O)NNC(=O)c1sc(-c2ccccc2)nc1C,6%,.,-6.9,3%,0.3%,7.5,?
CC1(C)OC1(C#N)c1ccccc1 (stereo not drawn),6%,.,-5.3,.,0.7%,.,-22%
O=c1[nH]c2ccc(S(=O)(=O)N3CCCCC3)cc2s1,0%,-1.1%,-0.1,16%,0.7%,0.2,-22%
NS(=O)(=O)c1ccc(CCNC(=O)C(=O)NCC2OCCN2S(=O)(=O)c2ccc(F)cc2)cc1 (stereo not drawn),4%,-1.5%,1.2,7%,-1.2%,0.7,20%
CC(Sc1nnc(-c2ccco2)n1N)C(=O)NCC1CCCO1 (stereo not drawn),7%,-3.4%,-0.7,.,0.3%,.,0%
CN(C)c1ccc(CNC(=O)C2CCN(S(=O)(=O)c3ccc4c(c3)CCCC(=O)N4)CC2)cc1,-1%,-1.2%,-4.2,2%,0.3%,.,?
CCCCCOC(=O)CSc1nc2c(c(=O)[nH]c(=O)n2C)n1Cc1ccc(Cl)cc1,9%,1.1%,-4.9,?,0.0%,5.8,-63%[inhibitor]
CC(C)(C)c1ccc(S(=O)(=O)NCc2ccc(C(=O)N3CCCC3)cc2)cc1,8%,0.1%,-0.1,15%,-3.5%[38.3 µM],2.8,-3%
O=C(CSc1nc2c(c(C(F)(F)F)n1)CCc1ccccc1-2)NCc1ccc(F)cc1,53%[activator],0.9%,1.5,-7%,9.0%[38.3 µM],2.2,?
Cc1ccc(S(=O)(=O)N2CCC(C(=O)Nc3nnc(COc4ccccc4)s3)CC2)cc1,0%,?,0.9,2%,2.0%,4.9,-20%
COc1ccc(NC(=O)C2CCCN(S(=O)(=O)c3ccc(Cl)cc3)C2)cc1OC (stereo not drawn),-3%,1.6%,-1.7,17%,4.2%,.,12%
O=C(c1ccc(OC2CCN(Cc3ccc(C(F)(F)F)cc3)CC2)cc1)N1CCCCC1,9%,.,-1.2,0%,-1.3%,-4.4,16%
CCOC(=O)CSc1nnc(-c2c[nH]c3ccccc23)n1CC,-1%,-0.3%,0.1,-2%,4.9%,-5.7,-36%[inhibitor]
Cc1cc(C(=O)COC(=O)c2ccc(O)cc2)c(C)n1CCc1ccc(F)cc1,-21%,1.7%,-0.9,?,2.5%,3.6,3%[15.4 µM]
COc1cc(/C=C/C(=O)Nc2ccc(OC)c(S(=O)(=O)N3CCOCC3)c2)ccc1OCC#N,-13%,.,1.9,.,4.9%,.,27%
O=C(C1CC1)N1CCN(c2ccnc3cc(Cl)ccc23)CC1,-11%,3.3%,0.6,21%,-1.6%,-1.4,11%
Cc1c(OC(C)C(=O)NCCN2CCOCC2)ccc2c(-c3ccccc3)cc(=O)oc12 (stereo not drawn),?,-11%,-6.3,2%,2.4%,-0.9,20%
Oc1ccc(N=Nc2nc(-c3ccccc3)c(-c3ccccc3)[nH]2)cc1,28µM*,1.1%,-6.2,16%,-1.8%,?,-16%
CN(C)c1ccc(C(=O)Nc2nc3c(s2)CCCC3)cc1,?,-28%,0.6,?,5.5%,-1.6,-10%
COC(=O)CN1C(=O)S/C(=C/c2ccc(N3CCCCC3)o2)C1=O,-12%,5.0%,-0.1,7.1µM*,8.9µM*,?,-40%[inhibitor]
